High-throughput results deposited in PubChem BioAssay by several laboratories.
WNV protease inh: WNV NS2B-NS3 proteinase inhibition. P06935. AID 577. WNV NS2B-NS3 protease, fluorogenic substrate Ex360/Em465; active compounds read low. 0.18% of 65,000 active. z-score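 (tested at a level between 10 and 100 µM)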;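 active means z-score at -3 or under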;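 further: score is relative to mean and spread of the compound wells of a plate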
Target sequence (P06935 1371-1501 limits assumed): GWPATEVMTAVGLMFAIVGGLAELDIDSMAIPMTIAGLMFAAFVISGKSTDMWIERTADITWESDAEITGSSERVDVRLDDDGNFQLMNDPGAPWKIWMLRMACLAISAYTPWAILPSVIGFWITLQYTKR
Target sequence (P06935 1502-1679 limits assumed): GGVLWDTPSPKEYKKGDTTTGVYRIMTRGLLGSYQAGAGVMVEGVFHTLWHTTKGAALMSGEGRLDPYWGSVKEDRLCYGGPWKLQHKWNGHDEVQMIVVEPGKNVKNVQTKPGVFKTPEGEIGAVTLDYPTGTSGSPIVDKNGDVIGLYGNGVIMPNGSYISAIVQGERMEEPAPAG
Hsc70: small molecules displacing fluorescent ligand from Hsc70 – biochemical, fluorescence polarization, primary screen (AID 568) | Hsc70 fluorescence polarization, probe displacement; higher % means a stronger effect; strong numbers were not always called active | one-dose displacement, % at 20 µM; IC50 in µM for titrated hits | 83,000 tested, under 10 active;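 active means displacement above 50% without optical interference and an IC50 on retest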;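 further: ATPase domain with a fluorescein-tagged ATP probe; 0% = vehicle and 100% = excess ADP; read after one hour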
MT1-MMP promoter: MT1-MMP gene expression reporter suppression – cell-based, luciferase reporter, luminescence (AID 618) | MT1-MMP promoter luciferase reporter cells, luminescence | calls from a first round at 10 µM; hits with a dose series show EC50 in µM | 0.62% of 87,000 active;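 active means over half of the reporter light lost at 10 µM or EC50 under 50 µM; inactive means the rest and hits that failed the dose series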;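 further: actives suppress MT1-MMP promoter-driven transcription so potencies describe inhibitors; HT1080 fibrosarcoma cells; overnight exposure; toxic or luciferase-blocking compounds were not removed from the actives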
* = called active by the depositor; i = inactive; / = no result given; + = active, no number. An excerpt (hit frequency here may not be typical).

smiles | MT1-MMP promoter | WNV protease inh | Hsc70
COCCn1c(SCc2c(F)cccc2Cl)nc2c1c(=O)[nH]c(=O)n2C | i | -0.13 | 1.8%
COc1ccc(C(=O)/C=C/Nc2cc(C)on2)c(OC)c1 | i | -0.58 | 1.2%
CCCSCCCNC(=O)CC1Oc2ccccc2NC1=O (stereo unspecified) | i | 0.33 | -3.8%
CC(C)CC1NC2(C(=O)N(C)c3ccccc32)C2C(=O)N(C(C)C)C(=O)C12 (stereo unspecified) | i | 2.58 | 3.0%
CC(=O)NCCOc1nc(N(C)C)nc(N2CCOCC2)n1 | i | 0.77 | 1.7%
O=C(Nc1ccc2c(c1)OCO2)C(c1ccc(Cl)cc1)N1CCC2(CC1)OCCO2 (stereo unspecified) | i | 1.13 | 1.5%
O=C(CCN1c2ccccc2Sc2ccccc21)OCC(=O)N1CCN(C(=O)c2ccco2)CC1 | i | 1.3 | 3.2%
Cc1ccc(C2C=C(c3ccc4c(c3)OCO4)Nc3ncnn32)cc1 (stereo unspecified) | i | -0.95 | -2.6%
O=C1NC2(CCCCC2)Cc2ccccc21 | i | 0.47 | 3.5%
Cc1ccc(N2C(=O)[C@@H]3C(c4ccc(F)cc4)=NO[C@@H]3C2=O)cc1 | i | -0.18 | 13.1%
CCCN1Cc2cccc(C(=O)NCCCOC(C)C)c2C1=O | i | 0.98 | 3.9%
COc1ccc(N2CCN(C(=O)CSc3ccccc3N)CC2)cc1 | i | -0.64 | 3.1%
COC(=O)/C=C1/S/C(=N/NC(=O)c2ccccc2)NC1=O | i | / | -5.9%
O=C1CC(c2ccc3c(c2)OCO3)CN1 (stereo unspecified) | i | 0.63 | -4.7%
COC(=O)c1ccc2c(=O)n(CCN3CCOCC3)c(=S)[nH]c2c1 | i | -0.48 | 7.4%
COc1ccc(-c2ccc(SCC(=O)N3CCCC3)nn2)cc1OC | i | -0.76 | 5.4%
CCC(C)NC(=O)c1ccc(COc2ccccc2Cl)cc1 (stereo unspecified) | i | / | -3.7%
Cc1ccc2cc(C)c3nnc(SCC(=O)N4CCN(C(=O)c5ccco5)CC4)n3c2c1 | i | / | -1.5%
CCOc1ccc(NC(=O)NCC2CCN(c3ccc(OC)cc3)C2)cc1 (stereo unspecified) | i | / | -0.8%
CC(C)CNC(=O)CCCc1c[nH]c2ccccc12 | i | / | -1.1%
COC(=O)Sc1nnc(-c2ccc(Br)cc2)o1 | i | 0.59 | 4.7%
CCOC(=O)c1nnn(-c2nonc2N)c1CSc1ccccn1 | i | 1.49 | -3.0%
CCOCCN1CCN(c2c3c(nc4cc(-c5ccc(F)cc5)nn24)CCC3)CC1 | i | -1.17 | -0.1%
CC(C)c1ccc(O)c(NC(=O)c2ncn[nH]2)c1 | i | 0.41 | -6.6%
NC(=O)c1ccccc1NS(=O)(=O)c1ccccc1 | i | / | 2.7%
COC(=O)CNC(=O)c1ccccc1C | i | / | 1.3%
CCOC(=O)Cn1c(=O)oc2cc(S(=O)(=O)Nc3ccc(F)cc3)ccc21 | i | 1.2 | 1.8%
COc1ccc(OC)c2[nH]c(=O)c(CCNC(=O)c3ccc(S(=O)(=O)N4CCCC4)cc3)cc12 | i | 0.41 | 6.3%
Cc1ccccc1NC(=O)Cc1nnc(SCC(=O)N2CCN(c3ccccc3)CC2)n1C | i | 0.2 | 8.8%
O=c1cc(CSc2nnc(-c3cccnc3)n2-c2ccccc2F)nc2sccn12 | i | / | 0.5%
COC(=O)C1CCN(S(=O)(=O)Cc2ccccc2)CC1 | i | 0.8 | -5.8%
O=C(Nc1ccccc1-c1ccccc1NC(=O)c1ccco1)c1ccco1 | i | / | -2.6%
CCOC(=O)c1sc(NC(=O)c2cccc(S(=O)(=O)N3CCN(C)CC3)c2)cc1C | i | 0.78 | -0.6%
c1ccc2[nH]c(NCCCN3CCOCC3)nc2c1 | i | -0.72 | -16.2%
COc1ccccc1OCc1ccc(C(=O)NCC2CCCO2)o1 (stereo unspecified) | i | / | 3.1%
Cc1n[nH]c(=O)nc1N1CCN(c2ccccc2)CC1 | i | -1.92 | -1.5%
Cc1nc2c(Br)cc(Br)cc2cc1O | i | / | 1.6%
Cc1ccc(S(=O)(=O)NCC(=O)OC2CCOC2=O)cc1 (stereo unspecified) | i | -0.55 | 1.3%
Cc1cc(C)n2cc(CSc3nc4cc(Cl)ccc4o3)nc2n1 | i | -1.62 | 9.1%
CCOc1ccc(-c2nc(-c3ccccc3)no2)cc1OCC | i | -0.54 | 1.8%
Cn1c(SCC(=O)N2CCCCC2)nc2c([nH]c3ccccc32)c1=O | i | -0.38 | -5.7%
CC1CN(c2oc(COc3ccc(Cl)cc3Cl)nc2C#N)CC(C)O1 (stereo unspecified) | i | -0.33 | -1.7%
CC(C)N(Cc1ccccc1)C(=O)COC(=O)c1ccc2c(c1)OCCO2 | i | 0.49 | 13.6%
Cc1cc(C)n(-c2nc3c(c(=O)n(Cc4ccc(Cl)c(Cl)c4)c(=O)n3C)n2C)n1 | i | -0.93 | 0.7%
Cc1ccc(-n2c(=O)[nH]cc(C(=O)Nc3ccc4c(c3)OCCO4)c2=O)cc1C | i | 1.33 | 0.3%
Cc1nnc(NCc2ccco2)s1 | i | / | 0.7%
Cc1ccc(C(=O)CSc2ncnc3sc4c(c23)CCC(C)C4)cc1 (stereo unspecified) | i | / | -3.3%
COC(=O)c1oc2ccc(Br)cc2c1-n1cccc1 | i | 0.89 | -6.1%
CC1CCN(c2ccc(C(=O)NCc3cccs3)cn2)CC1 | i | -0.92 | 2.3%
Cc1ccc(P(=Nc2ccccc2)(N2CCOCC2)N2CCOCC2)o1 | i | 0.73 | 6.3%
O=C(CN(C(=O)CCC(=O)Nc1nccs1)c1ccccc1F)NCC1CCCO1 (stereo unspecified) | i | -1.21 | 1.2%
Cc1ccc(C(=O)CSC2=C(C#N)C(c3ccco3)C3=C(CCCC3=O)N2)cc1 (stereo unspecified) | i | -0.95 | -5.6%
Cn1c(=O)n(C/C=C/c2ccccc2)c(=O)c2c1nc1n2CCCN1Cc1ccccc1 | i | -0.43 | -1.6%
O=C(CCc1nc(-c2ccccc2)no1)N1CCCC1 | i | -0.17 | -0.1%
Nn1c(SCc2nc3ccccn3c2Br)nnc1-c1cccnc1 | i | -0.75 | -0.5%
Cc1[nH]c2c(Cl)cccc2c(=O)c1CN1CCCC1 | i | 0.41 | 8.0%
COc1ccccc1N(C)S(=O)(=O)c1ccc(C(=O)NC2=NCCS2)cc1 | i | -0.93 | 4.6%
COc1ccc(NS(=O)(=O)c2cccs2)c(OC)c1 | i | -0.97 | -4.1%
CCn1[nH]c(=O)c(=Nc2c(C)n(C)n(-c3ccccc3)c2=O)cc1-c1ccc(Cl)cc1 | i | -0.86 | 4.2%
O=c1c2c3c(sc2ncn1/N=C/c1ccc(Br)o1)CCCC3 | i | -0.19 | 1.2%

The list continues.
smiles | MT1-MMP promoter | WNV protease inh | Hsc70
CCCOc1ccc(/C(O)=C2/C(=O)C(=O)N(CCCn3ccnc3)C2c2cccs2)cc1 (stereo unspecified) | i | -0.73 | -0.1%
COc1ccc(-c2cc(C(F)(F)F)n3nc(C(=O)NCCCn4ccnc4)cc3n2)cc1 | i | / | 4.2%
C/C(=C\C(=O)c1ccc(C)o1)Nc1ccc(C(=O)O)cc1C | i | -0.08 | -2.2%
Cc1ccc(S(=O)(=O)Cn2nnnc2CN(Cc2ccco2)CC2CCCO2)cc1 (stereo unspecified) | i | 0.84 | -1.7%
Cc1cccc(N2CCN(Cc3cc(=O)n4ccsc4n3)CC2)c1C | i | / | 0.7%
CN1C(=O)C2ON(c3ccccc3)C(c3cccs3)C2C1=O (stereo unspecified) | i | -0.02 | -0.8%
CCC(=O)Nc1ccc(C(=O)CSc2nnc(-c3ccc(O)cc3)n2CC2CCCO2)cc1OC (stereo unspecified) | i | / | 6.0%
CC1CCc2nc(NC(=O)CSc3nc4ccccc4o3)sc2C1 (stereo unspecified) | i | 0.58 | -3.8%
CC(C)CN1C(=O)c2ccccc2C1(O)Cc1ccccc1 (stereo unspecified) | i | / | 1.5%
CCCS(=O)(=O)NCCc1cc2cc(C)c(C)cc2[nH]c1=O | i | 0.59 | -0.1%
CCCC1S/C(=N/N=C/c2ccc(OC)cc2)N(Cc2ccc(OC)cc2)C1=O (stereo unspecified) | i | / | 2.3%
O=C(Nc1nnc(C2CC2)s1)c1ccncc1 | i | / | 1.7%
Cc1noc(C)c1CSc1nnc2sc3ccccc3n12 | i | 0.59 | 5.8%
Cc1nn2cc(-c3ccc(-c4ccccc4)cc3)nc2s1 | + | -0.98 | -1.3%
CCOc1cccc(NC(=O)CSc2nc(C)c3c(c2C#N)CCCC3)c1 | i | / | 2.3%
CCOC(=O)C1CCCN(C2CC(=O)N(c3cccc(C)c3)C2=O)C1 (stereo unspecified) | i | -0.05 | -1.6%
CCOc1ccccc1Nc1nnc(Cc2ccccc2Cl)c(=O)[nH]1 | i | 1.28 | 2.2%
CCC(=O)Nc1nnc(SCC(=O)N2c3ccccc3CC2C)s1 (stereo unspecified) | i | / | 4.4%
CCSc1nnc(NC(=O)CCNS(=O)(=O)c2cc(Br)cnc2N)s1 | i | -0.21 | 2.3%
O=C1CCCC2=C1C(c1ccccc1)C1=C(CCCC1=O)O2 | i | 0.43 | 9.0%
COc1ccc(-n2c(=O)c3c4c(sc3n3c(C)nnc23)COC(C(C)C)C4)cc1 (stereo unspecified) | i | -1.18 | 7.4%
CCOC(=O)/C(=N/Nc1ccc(C)cc1)S(=O)(=O)c1ccc(Cl)cc1 | i | / | 0.4%
CCN1CCN(Cc2cc(=O)oc3cc4c(cc23)CCC4)CC1 | i | -0.5 | 0.4%
Cc1nn(C)c(C)c1S(=O)(=O)N1CCC(C(=O)NC2CCCCCC2)CC1 | i | -0.73 | 2.2%
COCCN(CCOC)c1ncc(Cl)c(C(=O)c2c(C)cc3ccccn23)n1 | i | -1.29 | 1.3%
CCN1CCN(c2cc(C)c3cc(NC(=O)c4cncc(Br)c4)ccc3n2)CC1 | i | -0.97 | -1.9%
c1ccc2c(N3CCCCC3)ncnc2c1 | i | / | -1.4%
CCOc1cccc(-c2nnc3sc(COc4ccc(OC)cc4)nn23)c1 | i | 0.31 | 2.1%
COCCNC(=O)CN(CC1CCCO1)C(=O)CCC(=O)Nc1ccccn1 (stereo unspecified) | i | -0.23 | -3.2%
COc1ccc(CNC(=O)CSc2nnnn2-c2ccccc2)cc1 | i | 1.52 | 1.9%

5 entries from above, arranged by molecular weight, smallest number first:
smiles | MT1-MMP promoter | WNV protease inh | Hsc70
O=C(Nc1nnc(C2CC2)s1)c1ccncc1 | i | / | 1.7%
CCOc1ccccc1Nc1nnc(Cc2ccccc2Cl)c(=O)[nH]1 | i | 1.28 | 2.2%
CCOc1cccc(-c2nnc3sc(COc4ccc(OC)cc4)nn23)c1 | i | 0.31 | 2.1%
COCCNC(=O)CN(CC1CCCO1)C(=O)CCC(=O)Nc1ccccn1 (stereo unspecified) | i | -0.23 | -3.2%
CCC(=O)Nc1ccc(C(=O)CSc2nnc(-c3ccc(O)cc3)n2CC2CCCO2)cc1OC (stereo unspecified) | i | / | 6.0%

Next structures
smiles | MT1-MMP promoter | WNV protease inh | Hsc70
CCOC(=O)c1c(C#N)c(SCC(=O)Nc2ccc(OC)cc2)nc2c1CN(CC)CC2 | i | 0.34 | 5.3%
O=C(O)c1ccccc1NS(=O)(=O)c1cccc(C(F)(F)F)c1 | i | / | 4.0%
COc1ccc(CCNC(=O)c2nnn(-c3ccc4c(c3)OCCO4)c2N)cc1OC | i | -1.18 | -1.6%
COc1ccc(S(=O)(=O)N[C@@H](Cc2ccc(Cl)cc2)C(=O)N2CC[C@@]3(O)CCCC[C@H]3C2)cc1 | i | / | 0.3%
CC(Cc1c[nH]c2ccccc12)NC(=O)C1CCCNC1=O (stereo unspecified) | i | -0.44 | 0.2%
Cc1cc(C)nc(SC2CCOC2=O)n1 (stereo unspecified) | i | 0.55 | -3.0%
CC(=O)Oc1ccc2nc(-c3cccs3)oc(=O)c2c1 | i | / | 3.2%
COc1ccc(CC(=O)Nc2cc(C)c3c(=O)oc4ccccc4c3n2)cc1 | i | 3.21 | -0.1%
O=C(O)CCN1C(=O)NC2(CCCC2)C1=O | i | -0.35 | -0.9%
COc1ccc(S(=O)(=O)NCc2ccc(C(=O)N3CCN(c4ccccn4)CC3)cc2)cc1 | i | -0.34 | 0.5%
CCS(=O)(=O)N1CCN(C(=O)c2ccc(-c3ccccc3)cc2)CC1 | i | -1.99 | 3.4%
CN(C)C(=O)N1CCCC(C(=O)NCc2ccccc2)C1 (stereo unspecified) | i | 1.14 | 5.2%
COc1ccc(NC2=CC(=O)CC(C)(C)C2)cc1OC | i | 1.09 | -6.4%
CN(c1ccccc1C(=O)NCc1ccccn1)S(C)(=O)=O | i | -0.26 | 2.1%
CCc1ccc(CN2CCN(C(=O)c3cccc(OC)c3OC)CC2)cc1 | i | / | -3.2%
CCOC(=O)C1=C(c2ccccc2)NC(SCC(=O)Nc2cccc(C)c2)=C(C#N)C1c1ccco1 (stereo unspecified) | i | -0.44 | 1.0%
O=C(N/N=C/c1ccc(N2CCOCC2)o1)c1cccc(F)c1 | i | / | 2.0%
